Source: PubChem BioAssay
Vaccinia Venus: vaccinia inhibition (Venus reporter); Vaccinia virus Venus reporter expression, fluorescence; Potency, µM (series often up to 36.5 µM), for inactives: at the highest dose activity change, negative = inhibition, actives largely listed as inhibitors; 0.46% of 330,000 active; AID 720580; active means well fitted inhibition curve with a large enough effect; inconclusive means small, poorly fitted or top-dose-only effect; inactive means no such curve, though single readings can be large or run the other way; tested in A549 cells; note: nearly all actives have a fitted effect of over 30% in size; inactives centre near -10
VACV mCherry inh: vaccinia inhibition (mCherry reporter). Vaccinia virus mCherry reporter infection, fluorescence; about a quarter of the inactives have no number. Potency, µM (titrated, usually from 36.5 µM), without a hit: top-dose activity change, negative = inhibition, actives largely listed as inhibitors. 0.63% of 310,000 active; active = well fitted inhibition curve with a large enough effect; inconclusive = small, poorly fitted or top-dose-only effect; inactive = no such curve, though single readings can be large or run the other way; tested in A549 cells; note: nearly all actives have a fitted effect of over 35% in size; inactives centre near -10
Numbers without * were called inactive; i = inactive; ? = inconclusive; . = no result given; & = joins results of further samples; [ ] = another dose, or the depositor's remark. % is set by controls: 0 for no effect and ±100 for the full control effect; potency is the fitted concentration of half-maximal effect.

Order of results: Vaccinia Venus	VACV mCherry inh
- OCCN1CCN(c2ncnc3c2sc2nc(N4CCOCC4)c4c(c23)CCC4)CC1
→ ?	?
- C(=C\N1CCCCCC1)/c1nnnn1-c1ccc(-c2ccccc2)cc1
→ -3%[7.34 µM]	i[7.34 µM]
- CCc1nc2cc(C(=O)N3CCCN(C=O)CC3)cc(NC(=O)c3ccccc3OC)c2n1C
→ 0%	-7%
- C=CC[C@@H](CC(=O)N[C@@H](CO)Cc1ccccc1)C(=O)NC[C@@H](OC(=O)[C@@H](CC=C)Cc1ccc(F)cc1)c1ccccc1
→ -19%	i
- C=C1CC[C@@H]2[C@](C)(CCC[C@@]2(C)/C=C/[C@@H](O)C(C)(C)O)[C@H]1CC(=O)NCCS(=O)(=O)O
→ 8%	-13%
- CCOC(=O)C(NC(=O)c1ccccc1)C(C)(C)SCc1ccccc1 (configuration not stated)
→ -18%	-5%
- CNn1cnc2ccsc2c1=O
→ -6%	-3%
- CN1CCc2c(sc(NC(=O)C3CCN(S(=O)(=O)c4cccs4)CC3)c2C(N)=O)C1
→ -4%	i
- CC(CNC(=O)c1ccc(Cn2c(=O)c3cccn3c3cccnc32)cc1)c1ccccc1 (configuration not stated)
→ -16%	-12%
- Cc1c(C)c(C)c(/C=[N+](/C)[O-])c(C)c1C
→ -3%	i
- Cc1nn(-c2ccccc2)c(CC(C)(C)C(=O)O)c1C(=O)O
→ -16%	i
- COc1cccc(C(=O)N2c3cc(C)ccc3C(C)(c3ccccc3)CC2(C)C)c1 (configuration not stated)
→ -1%	-10%
- CCCCCOC(=O)C1=C(C)Nc2ncnn2C1c1cccs1 (configuration not stated)
→ ?	?
- COc1ccc2ccccc2c1/C=N/NC(=O)c1cccc(Br)c1
→ -6%	-26%
- Cc1ccccc1NC(=O)N1C2CCC1CC(O)(c1cccnc1)C2 (configuration not stated)
→ -13%	i

Part of the list above, bar-delimited:
molecule | Vaccinia Venus | VACV mCherry inh
CCc1nc2cc(C(=O)N3CCCN(C=O)CC3)cc(NC(=O)c3ccccc3OC)c2n1C | 0% | -7%
C=CC[C@@H](CC(=O)N[C@@H](CO)Cc1ccccc1)C(=O)NC[C@@H](OC(=O)[C@@H](CC=C)Cc1ccc(F)cc1)c1ccccc1 | -19% | i
C=C1CC[C@@H]2[C@](C)(CCC[C@@]2(C)/C=C/[C@@H](O)C(C)(C)O)[C@H]1CC(=O)NCCS(=O)(=O)O | 8% | -13%

Going on with the list.
Order of results: Vaccinia Venus	VACV mCherry inh
- Cc1cccc2c(=O)cc(CSc3ccccc3NC(=O)c3cccc(F)c3)[nH]c12
→ -1%	-5%
- COCCNC(=O)CCN1C(=O)c2cccnc2Oc2ccc(C)cc21
→ -11%	-8%
- COc1cccc(NC(=S)N(CCCN2CCN(C)CC2)Cc2ccco2)c1
→ -17%	-17%
- COc1ccccc1CC(NC(C)=O)C(=O)NC1CCN(C(=O)c2cccc(Cl)c2)CC1 (configuration not stated)
→ -13%	-9%
- Cc1cc(-c2nnc(SCC(=O)Nc3ccc(F)c(F)c3)n2N)n[nH]1
→ -12%	i
- Cn1c2ccccc2c(=O)c2ccc(NCc3ccc4c(c3)OCO4)cc21
→ -28%	?
- Cc1ccc(S(=O)(=O)N2CCN(C(=O)CSc3nnnn3C)CC2)c(C)c1
→ -5%	i
- CC(=O)Nc1ccc(Oc2ncccn2)cc1
→ 14%	.
- CN(C)c1ccc(S(=O)(=O)NCC(=O)NCC2CCCCC2)cc1[N+](=O)[O-]
→ -5%	i
- CCc1ccc(CN2CCN(Cc3ccc(SC)cc3)CC2)cc1
→ -29%	-30%
- COc1ccc(C(CNC(=O)c2ccc(-c3ccccc3Cl)o2)N2CCCC2)cc1 (configuration not stated)
→ ?	?
- COc1cccc(C=NNc2ccc([N+](=O)[O-])cn2)c1OC
→ -9%	-16%
- Cc1ccc(NC(=O)C(C)C(=O)Nc2ccc(C)cc2)cc1
→ -20%	-10%
- COC(=O)C1=C(c2ccc(C(C)=O)cc2)C[C@@H]2CC[C@H]1N2C(=O)NCCNC(C)=O
→ -5%	i
- CN(Cc1ccco1)c1ncnc2ccc(-c3ccc4c(c3)OCO4)cc12
→ 0%	i
- COc1ccc(-c2nc(CS(=O)CC(=O)NC3CCCCCC3)c(C)o2)cc1 (configuration not stated)
→ -10%	-16%
- CCOC(=O)c1sc(N(Cc2ccccc2)C(=O)CN2C(=O)CN(C)C2=O)nc1C
→ -7%	.
- Cc1ccc(CNC(=O)C2CCN(S(=O)(=O)c3cc(-c4noc(C)n4)ccc3C)CC2)cc1
→ -18%	?
- COc1ccc(NC(=O)COC(=O)c2cccc(S(=O)(=O)N(C)C)c2)cc1
→ -3%	i
- COc1ccc(NC(=O)C(Br)C(C)C)cc1 (configuration not stated)
→ 0%	-3%
- CCOc1ccccc1Nc1nc2ccccc2nc1NS(=O)(=O)c1ccc(Cl)cc1
→ -20%	-20%
- c1cc(C(c2nnnn2C2CCCC2)N2CCOCC2)ccn1 (configuration not stated)
→ 6%	2%
- CC(O)CNCCNCc1c(OCc2ccccc2)ccc2ccccc12 (configuration not stated)
→ -26%	-2%
- COc1cc(N=Cc2c(O)[nH]c3ccccc23)cc(OC)c1OC
→ ?	?
- CCOc1ccc2nc(N3CCCC(C(=O)Nc4cc(C)ccc4C)C3)sc2c1 (configuration not stated)
→ -26%	-30%
- CCN(CC)S(=O)(=O)c1cccc(NC2=NCCCCC2)c1
→ 5%	-1%
- COc1ccc(Cn2c(C(=O)O)c(CNC3CCCCCC3)c3ccc(OC)cc32)cc1
→ -6%	-19%
- CC(C)Cn1c(Br)nc2c1c(=O)n(CCC#N)c(=O)n2C
→ -9%	.
- COc1cccc(NC(=S)N2CCN(S(=O)(=O)c3ccccc3)CC2)c1
→ -28%	-4%
- Cc1cc(NC(=O)c2cccc(C)c2[N+](=O)[O-])no1
→ -9%	-15%
- CCCCN(C(=O)CSCc1c(C)noc1C)c1c(N)n(CCC)c(=O)[nH]c1=O
→ -2%	-5%
- Cc1cc(NC(=O)c2ccc(C)c([N+](=O)[O-])c2)no1
→ -4%	-13%
- COc1ccc(-c2nn(-c3ccccc3)cc2/C=C/C(=O)OCC(=O)Nc2ccccc2C#N)cc1
→ 4%	-4%
- O=S(=O)(N/N=C/c1ccccc1F)c1ccccc1
→ -8%	i
- O=C(Nc1cccc(C(F)(F)F)c1)Nc1ccc2[nH]c(=O)[nH]c2c1
→ -5%	-5%
- COC(=O)[C@@]12C[C@@H](CC(=O)N3CCCCC3)C(=O)N(Cc3ccccc3)C1=CCC(C)(C)C2
→ -15%	i
- O=C1CN(C(=O)Nc2ccccc2Cl)C(c2ccccc2)c2c(sc3c2CCCC3)N1 (configuration not stated)
→ -11%	-7%
- CN(C)S(=O)(=O)c1cc(NC(=O)COC(=O)c2nc(Cl)ccc2Cl)ccc1Cl
→ -3%	i
- O=C(OC1CC2CC1[C@H]1CCCCN1C2=O)N1CCN(C(=O)c2ccccc2)CC1 (some centres not stated)
→ 3%	33%[activator]
- Cn1c(=O)c(C(=O)Nc2ccccc2S(N)(=O)=O)c(O)c2ccccc21
→ 10%	-9%
- COc1ccc(N2CCN(C3C(=O)Nc4ccccc4-n4nnnc43)CC2)cc1 (configuration not stated)
→ -3%	-15%
- COc1nc(-c2ccccc2)nc(C)c1CC(=O)O
→ -7%	2%
- Cc1nn(C(=O)N2CCOCC2)c(C)c1C
→ -10%	-17%
- COc1cc(-c2cc3nc4ccccc4n3c(N)c2C#N)cc(OC)c1OC
→ -11%	-15%
- COc1ccc(S(=O)(=O)N2CCC(C(=O)N3CCOCC3)CC2)cc1Cl
→ -15%	i

Profiles as entered above:
Results for COc1ccc(-c2nn(-c3ccccc3)cc2/C=C/C(=O)OCC(=O)Nc2ccccc2C#N)cc1 = Vaccinia Venus = 4%; VACV mCherry inh = -4%
Results for COC(=O)[C@@]12C[C@@H](CC(=O)N3CCCCC3)C(=O)N(Cc3ccccc3)C1=CCC(C)(C)C2 = Vaccinia Venus = -15%; VACV mCherry inh = i

More structures follow.
Order of results: Vaccinia Venus	VACV mCherry inh
- COc1ccc(CCN(C)Cc2ccc(F)cc2F)cc1OC
→ 7%	i
- COc1cc(/C=N/Nc2nc3ccccc3s2)ccc1O
→ -1%	?
- COC(=O)c1c(SCC(=O)Nc2cccc(C(F)(F)F)c2)[nH]c2ccccc2c1=O
→ -28%	?
- CCCn1c2ccccc2c2cnn(CC(=O)N(C)c3ccc(F)cc3)c(=O)c21
→ -1%	-5%
- CCOC(=O)C1=C(COC(=O)c2ncc(Cl)c(Cl)c2Cl)NC(=O)NC1C (configuration not stated)
→ -16%	i
- Cc1ccc2c(c1)C(=O)OC(C(=O)Nc1ccc(C(=O)O)cc1)C2 (configuration not stated)
→ 2%	-2%
- O=C(CN(Cc1ccccc1)S(=O)(=O)c1ccccc1)NC1CC1
→ -7%	i
- C=CC[C@@H](CC(=O)N(CCO)Cc1ccccc1)C(=O)NC[C@@H](OC(=O)[C@@H](CC=C)CC(=O)OC(C)(C)C)c1ccccc1
→ -29%	i
- COc1ccc(NC(=O)Cn2ncn3nc(-c4ccc(OC)cc4)cc3c2=O)cc1
→ -12%	-20%
- CCCCn1c(N)c(N(CC(C)C)C(=O)c2ccc(S(=O)(=O)N3CCCCC3)cc2)c(=O)[nH]c1=O
→ -3%	-14%
- O=C(COC(=O)c1ccc(O)cc1)NC1CCCCCCC1
→ -15%	-16%
- CC1CC(C)(C)NC(=S)N1CCC(=O)NCc1ccc(F)cc1 (configuration not stated)
→ -11%	i
- O=C(Nc1ccc(Br)cc1)C1C2C=CC3(O2)C1C(=O)N(CCN1CCOCC1)C3C(=O)NC1CCCCC1 (configuration not stated)
→ -3%	i
- COC(=O)c1[nH]c(C)c(/C(O)=C2\C(=O)C(=O)N(CCN(C)C)C2c2cc(OC)ccc2OC)c1C (configuration not stated)
→ -11%	.
- Cn1cccc1/C=N/NC(=O)c1ccco1
→ -7%	-3%
- CCC(=O)Nc1ccc(C(=O)n2ccc(C)n2)cc1
→ -1%	-9%
- OCCNCCCCSc1ccc(Cl)cc1
→ -17%	-3%
- COc1ccc(C(NC(=O)C2CCN(CCOc3ccc(Cl)cc3)CC2)c2cccs2)cc1 (configuration not stated)
→ -16%	i
- COc1cc(-c2cc(C(=O)Nc3ccc(S(=O)(=O)NCc4ccco4)cc3)c3ccccc3n2)cc(OC)c1OC
→ -28%	?
- CCC(CC)C(=O)NCc1ccc(OC)cc1
→ 1%	-12%
- CC(C)(C)c1ccc(C(=O)N/C(=C\c2cccs2)C(=O)N2CCOCC2)cc1
→ -14%	-6%
- C=CCSc1nnc(NC(=O)c2cn(CC)c3nc(C)ccc3c2=O)s1
→ 6%	i
- COc1cc(C)c(Cl)cc1S(=O)(=O)N(C)C
→ -4%	.
- C/C(CCc1oc2ccccc2c1-c1ccc(C)o1)=N/O
→ ?	.
- CCn1cc(CN2CCCC(C(=O)Nc3cccc(-c4cc5ccccc5[nH]4)c3)C2)c(C)n1 (configuration not stated)
→ -28%	-27%
- CN1CCCN(S(=O)(=O)c2cccc(Cl)c2Cl)CC1
→ -20%	i
- CC1=C(C(=O)N2CCOCC2)CC(CC(=O)NCC2CCCCC2)C(=O)N1Cc1ccccc1 (configuration not stated)
→ -14%	-12%
- CC(C)N=C(Nc1cccnc1)c1ccccc1
→ -4%	-24%
- COc1cc(NC(=O)COc2ccccc2Cl)ccc1NC(=O)C(C)C
→ -10%	-5%
- Cc1ccc(-n2c(=O)c3c(c4cc(C)ccc4n3C)n(CC(=O)NCCC3=CCCCC3)c2=O)cc1
→ 2%	-11%
- CC(C)(C)NCC(O)c1cc(Cl)c(N)c(Cl)c1 (configuration not stated)
→ -8%&-9%	i
- Cc1c(N=Cc2cc(Br)cc(Br)c2O)cccc1C(=O)O
→ -13%	i
- CNC(=O)c1ccccc1NC(=O)C1CC(=O)N(C(C)C)C1 (configuration not stated)
→ -24%	i
- CC1CCCCN1c1cc2c(cc1F)c(=O)c(S(=O)(=O)c1ccccc1)cn2Cc1ccccc1 (configuration not stated)
→ -14%	-5%
- COc1cc2c(cc1OC)CN(C(=O)Nc1ccccc1)CC2
→ -17%&-9%	-16%&-10%
- COc1ccc(C2(CN(C(C)=O)C(C)=O)CCCC2)cc1OC
→ -27%	-17%[1.46 µM]
- COc1ccc(-c2cn3cccnc3n2)cc1F
→ -17%	-18%
- O=C(NCc1cccnc1)c1cc(C2CCCCN2C(=O)CCc2ccccc2)on1 (configuration not stated)
→ -1%	-4%
- CCNC(=O)C1(C)CCN(C(=O)c2ccccc2OC)C1 (configuration not stated)
→ 14%	-5%
- Cc1cccc(C)c1NC(=O)c1csc2c1CCCC2
→ -14%	-20%
- COc1ccc(-c2nc3n(n2)C(c2ccc(O)cc2)C(C(=O)Nc2cccnc2)=C(C)N3)cc1OC (configuration not stated)
→ -11%	1%
- COc1ccc(CCNC(=O)c2nnn(CC(=O)Nc3ccccc3)c2N)cc1OC
→ -7%	-19%
- COc1ccc(CCNC(=O)Nc2nc(CN)cs2)cc1OC
→ -11%	28%
- COc1ccccc1NS(=O)(=O)c1cc(NC(=O)c2ccncc2)ccc1N1CCCC1
→ -19%	-11%
- CC1CN(S(=O)(=O)c2cccc(C(=O)OCC(=O)Nc3ccc4c(c3)OCO4)c2)CC(C)O1 (configuration not stated)
→ -1%	-14%
- CCn1c(Cc2cccs2)nnc1SCC(=O)Nc1ccc(OC)c(OC)c1
→ -16%	-18%

Exported with tabs: entries from further up.
Compound	Vaccinia Venus	VACV mCherry inh
Cn1cccc1/C=N/NC(=O)c1ccco1	-7%	-3%
CCC(=O)Nc1ccc(C(=O)n2ccc(C)n2)cc1	-1%	-9%
OCCNCCCCSc1ccc(Cl)cc1	-17%	-3%
